AID923 = qHTS Assay for Allosteric/Competitive Inhibitors of Caspase-1: Spectroscopic Profiling in AFC Spectral Region; actives 1.1% (n = 75,000); Potency, µM (highest dose often 57.5 µM), inactives show at the highest dose fluorescence increase, most hits filed as activators; AID 923, 2007; compound fluorescence, AFC spectral region (405/520 nm); almost no hit is shown here; active = well fitted activation curve with a large enough effect; inconclusive = small, poorly fitted or top-dose-only effect;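 note: potency is the fitted concentration of half-maximal effect; 0% is about no effect; scaled to a free AFC standard on each plate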
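Compound autofluorescence profiled at 405 nm ex/520 nm em during kinetic caspase 1 run (50 nM enzyme, 5 uM Ac-WEHD-AFC, HEPES pH 7.5, 10 mM DTT). Titration up to 57 uM; baseline from regression intercept, normalized to AFC standard curve.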
A647 fluor = compound autofluorescence in A647 spectral region; Compound fluorescence, A647 channel (570/671 nm), Tris buffer; max dye-equivalent concentration, M; 59,000 tested, under 10 active; AID 592; active means above 1 µM dye equivalent; inconclusive means 0.1 to 1 µM; inactive means 0.1 µM or less;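 note: values scaled relative to a standard on each plate; highest value over a series up to 38 µM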
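Spectral profiling of library compounds in pH 8.0 Tris: 15 min room-temperature incubation, single ex/em pair (570/671 nm), response normalized to Alexa 647 equivalents.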
A488 fluor = compound fluoresces in the A488 spectral region; compound autofluorescence, A488 spectral region, dye equivalency; hits give high values; max dye equivalency, M; actives 0.1% (n = 59,000); AID 591; active = above 10 nM dye equivalent; inconclusive = 1 to 10 nM; inactive = 1 nM or less; about half of its hits are not listed in these tables;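 note: highest value over a series up to 38 µM; compound alone in buffer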
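Autofluorescence read at ex 480/em 540 nm after 15 min RT in 100 mM Tris pH 8.0; compound signal normalized to A488 standard series on each plate, reported as dye-equivalent concentration at each test concentration.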
Resorufin fluor = resorufin region autofluorescence; Compound fluorescence, resorufin region 547/598 nm, buffer; hits give high values; actives 0.04% (n = 59,000); AID 588; max dye-equivalent concentration, M; active = above 10 nM dye equivalent; inconclusive = 1 to 10 nM; inactive = 1 nM or less; a few of its hits are not listed in these tables; note: highest value over a series up to 38 µM
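Read-out: intrinsic compound fluorescence at ex 547/em 598 nm after 15 min at RT in pH 8.0 Tris (100 mM). Values expressed as resorufin-equivalent concentration from per-plate standard series.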
TSHR agonist = agonists of human thyroid stimulating hormone receptor | HEK293-CNG-TSHR cells (CNG channel as cAMP sensor), membrane potential dye, cAMP | AID 926 | Potency, µM (doses to about 57.1 µM), without a hit: top-dose activation, actives largely listed as activators | P16473 | actives 0.48% (n = 73,000); active = well fitted activation curve of enough size with the parental cells flat; inconclusive = any curve in the parental cells; inactive = parental cells flat and receptor cells flat or falling; note: potency is the fitted concentration of half-maximal effect; % of control where 0% means no effect; weak receptor curves with flat parental cells got no call and are not listed
Target sequence (P16473 whole entry, looked up): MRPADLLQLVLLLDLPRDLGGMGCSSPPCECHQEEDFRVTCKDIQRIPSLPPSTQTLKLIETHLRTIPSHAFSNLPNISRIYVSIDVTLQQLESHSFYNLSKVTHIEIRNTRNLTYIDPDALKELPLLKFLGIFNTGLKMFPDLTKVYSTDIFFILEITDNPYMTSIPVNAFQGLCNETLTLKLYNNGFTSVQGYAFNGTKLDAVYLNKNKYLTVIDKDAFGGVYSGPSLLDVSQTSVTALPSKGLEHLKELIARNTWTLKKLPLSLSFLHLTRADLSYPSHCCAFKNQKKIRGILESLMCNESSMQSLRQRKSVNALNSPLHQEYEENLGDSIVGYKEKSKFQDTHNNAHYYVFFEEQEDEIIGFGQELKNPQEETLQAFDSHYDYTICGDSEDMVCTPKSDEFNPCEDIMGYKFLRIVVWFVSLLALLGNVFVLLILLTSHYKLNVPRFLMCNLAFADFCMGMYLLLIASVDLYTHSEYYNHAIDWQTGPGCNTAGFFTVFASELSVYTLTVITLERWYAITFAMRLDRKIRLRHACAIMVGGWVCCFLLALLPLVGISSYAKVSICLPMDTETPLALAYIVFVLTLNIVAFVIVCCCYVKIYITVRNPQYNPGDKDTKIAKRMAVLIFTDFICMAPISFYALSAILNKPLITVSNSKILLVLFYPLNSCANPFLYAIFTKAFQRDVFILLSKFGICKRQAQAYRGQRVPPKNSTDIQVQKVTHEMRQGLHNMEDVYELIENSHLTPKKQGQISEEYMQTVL
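cAMP rise detected as CNG-channel membrane depolarization by fluorescent dye (emission 590 nm), 30 min after compound, following 60 min dye loading containing 100 uM RO 20-1724 at room temperature. Cells: TSHR/CNG HEK 293, with parental CNG HEK 293 as control.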
Active calls of the source: *; i = inactive; ? = inconclusive; nt = no result given; [ ] = dose if it differs, or a comment. An excerpt (hit frequency here may not be typical).

SMILES	AID923	A647 fluor	A488 fluor	Resorufin fluor	TSHR agonist
O=C(Cn1ncc2c(=O)oc3ccccc3c21)NCCN1CCN(c2ccccc2F)CC1	-0.5%	nt	nt	nt	-7%
C=CCNC(=O)CN(c1ccc(F)c(Cl)c1)S(C)(=O)=O	1.3%	1e-09	i	i	-6%
Cc1ccn2c(-c3csc(NCc4ccco4)n3)c(C)nc2c1	0.6%	nt	nt	nt	-1%[11.4 µM]
CC1CCN(C(=O)CSc2nnc(CNC(=O)COc3ccc(Cl)cc3)o2)CC1	-0.6%	5.1e-09	i	i	13%[11.4 µM]
CCOC(=O)c1cc2nc(Nc3ccc(OC)cc3)sc2s1	7.5%	1e-09	i	i	-17%
Cc1ccc2c(c1)NC(=O)C(CC(=O)NCCCN1CCN(c3cc(C)ccc3C)CC1)O2 (stereo not drawn)	-1.4%	nt	nt	nt	17%
CN=C1c2ccccc2CN1c1cccc(C(=O)OC)c1	0.6%	1e-09	i	i	16%
COc1ccc(S(=O)(=O)N2CCCC2C(=O)Nc2nnc(-c3cccnc3)s2)cc1 (stereo not drawn)	-0.9%	3.9e-09	i	i	-3%
CCC(=O)O[C@H](CC(=O)O)C[N+](C)(C)C	4.3%	nt	nt	nt	-2%
COc1ccc(CSc2nncn2N)cc1Br	0.0%	nt	nt	nt	0%[11.4 µM]
CCc1nnc(NC(=O)CCC(=O)N2CCN(Cc3cc(F)ccc3OC)CC2)s1	-0.7%	1e-09	i	i	19%
CCCCOCCCNC(=O)c1ccc(NC(C)=O)cc1	0.1%	nt	nt	nt	-5%[11.4 µM]
CCOC(=O)C1CCN(C(=O)CCNC(=O)Cn2ccc3ccccc3c2=O)CC1	-1.0%	4e-09	i	i	-2%
CC(=O)N1CCC2(CC1)CCN(C(=O)Nc1cccc(C#N)c1)CC2	-0.6%	2.1e-09	i	i	0%
COc1ccc(-c2nc(CSCC(=O)N3CCN(C(=O)c4ccco4)CC3)c(C)o2)cc1OC	1.7%	nt	nt	nt	1%
Cc1c(C(=O)NCCCN2CCCC2=O)oc2ccccc12	-1.0%	1e-09	i	i	1%
COC(=O)CNC(=O)c1cn(CC(C)C)c(=O)c2cc(OC)c(OC)cc12	-0.2%	2.9e-08	i	i	1%
CSc1nc(-c2ccco2)nn1C(=O)c1ccco1	0.8%	nt	nt	nt	-1%
Cc1cc(NCCCN2CCOCC2)n2ncc(-c3ccc(Cl)cc3)c2n1	2.9%	5.4e-09	i	i	-16%
CCOC(=O)N1CCC(NC(=O)COc2cc(=O)n(C)c3ccccc23)CC1	2.6%	nt	nt	nt	1%

Compounds listed so far containing a Cl atom, in the order listed:
SMILES	AID923	A647 fluor	A488 fluor	Resorufin fluor	TSHR agonist
C=CCNC(=O)CN(c1ccc(F)c(Cl)c1)S(C)(=O)=O	1.3%	1e-09	i	i	-6%
CC1CCN(C(=O)CSc2nnc(CNC(=O)COc3ccc(Cl)cc3)o2)CC1	-0.6%	5.1e-09	i	i	13%[11.4 µM]
Cc1cc(NCCCN2CCOCC2)n2ncc(-c3ccc(Cl)cc3)c2n1	2.9%	5.4e-09	i	i	-16%

(cont.)
SMILES	AID923	A647 fluor	A488 fluor	Resorufin fluor	TSHR agonist
O=C(CCN1CCCCCC1)Nc1ccc(F)c(F)c1	1.9%	nt	nt	nt	-1%
CSc1nc(C)cc(OCC(=O)N2CCOCC2)n1	-0.8%	1.1e-08	i	i	-6%[11.4 µM]
CCN1CCN(c2cc(C)c3cc(NC(=O)Cc4ccc(OC)c(OC)c4)ccc3n2)CC1	1.8%	nt	nt	nt	-3%
O=C(C1CCC1)N1CCc2cc(S(=O)(=O)NCc3cccnc3)ccc21	-1.4%	1.6e-08	i	i	15%
CCOC(=O)N1CCN(CC(=O)N2c3ccccc3CC2C)CC1 (stereo not drawn)	-0.3%	1e-09	i	i	-7%
N=C(N)S[C@H]1c2ccccc2-c2cc([N+](=O)[O-])ccc21	-2.3%[11.5 µM]	2.3e-08	i	i	-4%[11.4 µM]
COC(=O)c1ccccc1NC(=O)CN1CCN(C(=O)c2ccco2)CC1	-1.5%	1.3e-08	i	i	18%
CCOC(=O)c1oc2cccc(OC(C)=O)c2c1C	-0.2%	1e-09	i	i	-19%
O=C(CC1Oc2ccc(Cl)cc2NC1=O)NC1CCCCCC1 (stereo not drawn)	-0.4%	nt	nt	nt	1%
CCOC(=O)CCc1c(C)nc2cc(-c3ccc(Cl)cc3)[nH]n2c1=O	0.5%	3e-08	i	i	-3%
Cc1ccc(S(=O)(=O)N2CCN(C)CC2)cc1-c1nnc2c3ccccc3c(C)nn12	-0.4%	3.3e-08	i	i	4µM*
COc1ccc(-c2nnc3ccc(SCC(=O)N4CCN(c5ccccc5)CC4)nn23)cc1	-1.1%	3.7e-09	i	i	-1%[11.4 µM]
CC(=O)Cc1nsc(NC(=O)c2ccccc2)n1	-0.7%	2.1e-08	i	i	0%
CCOC(=O)c1ccccc1NC(=O)c1c(F)c(F)c(F)c(F)c1F	1.7%	1e-09	i	i	26%
CC(=O)NC1(c2ccccc2)CCN(c2nc(C)cc(C)n2)CC1	1.2%	3.2e-08	i	i	4%
O=C(Nc1ccccc1C(=O)N1CCCCCC1)c1cccc(S(=O)(=O)N2CCOCC2)c1	-0.8%	2.5e-08	i	i	13%
CCCCCOC(=O)c1[nH]c2c(c1C)C(=O)C(C(=O)OC)C(C)C2 (stereo not drawn)	0.1%	2.6e-08	i	i	?
O=C(C(F)C(F)(F)F)N1CCN(c2ccccc2)CC1 (stereo not drawn)	1.0%	5.9e-09	i	i	1%
COc1cccc(NC2CC(=O)N(CCc3ccccc3)C2=O)c1 (stereo not drawn)	0.8%	2.3e-08	i	i	-12%
O=C(c1sccc1-n1cccc1)N1CCCC1	2.4%	2.9e-08	i	i	5%
COc1ccccc1OC[C@H](O)CO	-2.9%[25.7 µM]	9.6e-09	i	i	7%[25.6 µM]
OC(Cc1cccnc1)(c1ccccc1)c1ccccc1	0.5%[11.5 µM]	1e-09	i	i	10%[11.4 µM]
Cc1noc(C)c1S(=O)(=O)N(CC(=O)N1CCCCCC1)c1ccc(C(C)C)cc1	-1.8%	nt	nt	nt	?
c1ccc(C(c2nnnn2C2CCCCC2)N2CCc3ccccc3C2)nc1 (stereo not drawn)	6.0%	1e-09	i	i	9%
COC(=O)CSc1nnc(CNc2ccc(Cl)cc2)n1Cc1ccccc1	-0.9%	1e-09	i	i	?
CCCc1nnc(SCc2ccc(OCC)cc2)n1N	nt	4.6e-08	i	i	nt
CCCn1c(C(O)c2cc(OC)ccc2OC)nc2ccccc21 (stereo not drawn)	-0.1%	3.3e-08	i	i	18%
CN(c1cccc(NC(=O)Nc2cccc(Cl)c2)c1)S(C)(=O)=O	0.0%	4.2e-09	i	i	2%
O=C(NCCN1CCOCC1)NC1(C(F)(F)F)Oc2ccc(Cl)cc2O1 (stereo not drawn)	-0.2%	3.2e-08	i	i	-3%
O=C(Nc1ccc(-c2noc(CCc3ccccc3)n2)cc1)c1cccnc1	-1.9%	1e-09	i	i	8%
O=C(CCCCn1c(=O)c2ccccc2n(Cc2ccc(F)cc2)c1=O)NCc1ccco1	-0.6%	5.2e-09	i	i	18%
O=C(O)c1cc(-c2ccc(-c3ccc(-c4cc(C(=O)O)c5cc(Cl)ccc5n4)cc3)cc2)nc2ccc(Cl)cc12	0.8%[11.5 µM]	1e-09	i	i	-6%[11.4 µM]
CCOc1ccccc1N1C(=O)CC(Nc2ccc(N3CCOCC3)cc2)C1=O (stereo not drawn)	-1.1%	nt	nt	nt	-5%[11.4 µM]
O=S(=O)(c1ccc(Cl)c(C(F)(F)F)c1)N1CCN(CC(O)COCC2CCCO2)CC1 (stereo not drawn)	-1.6%	3.4e-09	i	i	4%
CCOC(=O)c1cccc(NC(=O)C2CCC(CNc3c(N4CCOCC4)c(=O)c3=O)CC2)c1 (stereo not drawn)	-1.9%	nt	nt	nt	-2%
CCNC(=O)COc1ccc2ccccc2c1	0.6%	nt	nt	nt	-4%
S=c1nc(-c2cccc(Br)c2)[nH][nH]1	-2.3%	nt	nt	nt	-2%
CC1CCN(C(=O)CSc2ccc(-c3ccc(F)cc3)nn2)CC1	-2.4%	1e-09	i	i	-14%
CCOC(=O)C1=C(C)NC(C)=C(C(=O)OCC)C1c1ccc(OC)cc1	2.7%	1e-09	i	i	23%
COc1cccc(-c2nc(=S)c3c(n2Cc2ccco2)CCCC3)c1	2.0%	1e-09	i	i	?
CC(C(=O)NCC1(c2ccccc2)CCCC1)N1CCOCC1 (stereo not drawn)	1.4%	4.4e-08	i	i	-8%
Cc1ccc(-c2nnc(CSc3nc(C)nc4sc(C)c(C)c34)o2)cc1	-0.1%	4e-09	i	i	18%
CCC(c1c(C)n(C)n(-c2ccccc2)c1=O)c1c(C)n(C)n(-c2ccccc2)c1=O	nt	1e-09	i	i	nt
CC(C)(O)C#Cc1ccc(C(=O)NCc2cccs2)s1	-1.3%	1e-09	i	i	0%
O=C1C2=C(Nc3ccccc3SC2c2ccco2)c2ccccc21 (stereo not drawn)	-2.6%	nt	nt	nt	2µM*
COCCNc1ncnc2c1cnn2Cc1ccc(Cl)cc1	-0.1%	5.9e-09	i	i	-5%

At a glance, part of the list above:
SMILES	AID923	A647 fluor	A488 fluor	Resorufin fluor	TSHR agonist
O=C(CCCCn1c(=O)c2ccccc2n(Cc2ccc(F)cc2)c1=O)NCc1ccco1	-0.6%	5.2e-09	i	i	18%
O=C(O)c1cc(-c2ccc(-c3ccc(-c4cc(C(=O)O)c5cc(Cl)ccc5n4)cc3)cc2)nc2ccc(Cl)cc12	0.8%[11.5 µM]	1e-09	i	i	-6%[11.4 µM]
CCOc1ccccc1N1C(=O)CC(Nc2ccc(N3CCOCC3)cc2)C1=O (stereo not drawn)	-1.1%	nt	nt	nt	-5%[11.4 µM]
O=S(=O)(c1ccc(Cl)c(C(F)(F)F)c1)N1CCN(CC(O)COCC2CCCO2)CC1 (stereo not drawn)	-1.6%	3.4e-09	i	i	4%
CCOC(=O)c1cccc(NC(=O)C2CCC(CNc3c(N4CCOCC4)c(=O)c3=O)CC2)c1 (stereo not drawn)	-1.9%	nt	nt	nt	-2%
CCNC(=O)COc1ccc2ccccc2c1	0.6%	nt	nt	nt	-4%
S=c1nc(-c2cccc(Br)c2)[nH][nH]1	-2.3%	nt	nt	nt	-2%
CC1CCN(C(=O)CSc2ccc(-c3ccc(F)cc3)nn2)CC1	-2.4%	1e-09	i	i	-14%
CCOC(=O)C1=C(C)NC(C)=C(C(=O)OCC)C1c1ccc(OC)cc1	2.7%	1e-09	i	i	23%
COc1cccc(-c2nc(=S)c3c(n2Cc2ccco2)CCCC3)c1	2.0%	1e-09	i	i	?
CC(C(=O)NCC1(c2ccccc2)CCCC1)N1CCOCC1 (stereo not drawn)	1.4%	4.4e-08	i	i	-8%
Cc1ccc(-c2nnc(CSc3nc(C)nc4sc(C)c(C)c34)o2)cc1	-0.1%	4e-09	i	i	18%
CCC(c1c(C)n(C)n(-c2ccccc2)c1=O)c1c(C)n(C)n(-c2ccccc2)c1=O	nt	1e-09	i	i	nt
CC(C)(O)C#Cc1ccc(C(=O)NCc2cccs2)s1	-1.3%	1e-09	i	i	0%
O=C1C2=C(Nc3ccccc3SC2c2ccco2)c2ccccc21 (stereo not drawn)	-2.6%	nt	nt	nt	2µM*
COCCNc1ncnc2c1cnn2Cc1ccc(Cl)cc1	-0.1%	5.9e-09	i	i	-5%
